VACV Venus inh – inhibitors of vaccinia virus (Venus reporter). Vaccinia virus Venus reporter expression, fluorescence. AID 720580. Potency, µM (highest dose often 36.5 µM), for inactives: at the highest dose activity change, negative = inhibition, actives largely listed as inhibitors. 330,000 tested, 0.46% active; active means well fitted inhibition curve with a large enough effect; inconclusive means small, poorly fitted or top-dose-only effect; inactive means no such curve, though single readings can be large or run the other way; tested in A549 cells; further: nearly all actives have a fitted effect of over 30% in size; inactives centre near -10
VACV mCherry inh – vaccinia inhibition (mCherry reporter). Vaccinia virus mCherry reporter infection, fluorescence; about a quarter of the inactives have no number. Potency, µM (top dose mostly 36.5 µM), inactives show at the highest dose activity change, negative = inhibition, hits mostly inhibitors. 310,000 tested, 0.63% active. AID 720579; active = well fitted inhibition curve with a large enough effect; inconclusive = small, poorly fitted or top-dose-only effect; inactive = no such curve, though single readings can be large or run the other way; tested in A549 cells; further: nearly all actives have a fitted effect of over 35% in size; inactives centre near -10
An asterisk follows results filed as active; & = joins results of further samples; [ ] = another dose, or the depositor's remark. On the % scale 0 is the no-effect control and ±100 the full control effect; potency means the concentration at half of the fitted maximal effect.

For CN(C)CCCN(C(=O)c1ccc(S(=O)(=O)N2CCCCCC2)cc1)c1nc2cc3c(cc2s1)OCO3 the results were VACV Venus inh inconclusive and VACV mCherry inh -24%.
For CCOC(=O)[C@]12CCCC=C1N(Cc1ccc3c(c1)OCO3)C(=O)[C@H](CC(=O)NCC13CC4CC(CC(C4)C1)C3)C2 the results were VACV Venus inh -29% and VACV mCherry inh -4%.
`CCc1ccccc1OCCCOc1ccc(OC)cc1` gave VACV Venus inh -9% and VACV mCherry inh -14%.
Screening COc1ccc2c(c1)c(=Cc1ccc(N(C)C)cc1)c1cc(-c3ccccc3)[n+](C)n12 returned VACV mCherry inh 320%[activator].
`COc1ccc(CC(=O)Nc2c3c(nn2-c2cccc(Cl)c2)CS(=O)C3)cc1` (centres undefined) gave VACV Venus inh -16% and VACV mCherry inh -13%.
`O=C(NCCc1ccc(F)cc1)C(=O)NCC1CCCN1S(=O)(=O)c1ccccc1` (centres undefined) gave VACV Venus inh -23% and VACV mCherry inh inconclusive.
For O=C(c1ccc(OC2CCN(Cc3ccccn3)CC2)cc1)N1CCC[C@H]1CO the results were VACV Venus inh -11% and VACV mCherry inh -10%.
Screening COc1ccc(CN(C(=O)c2cnccn2)C(C(=O)Nc2ccc(F)cc2)c2ccccc2)cc1 (centres undefined) returned VACV Venus inh -13% and VACV mCherry inh -10%.
`COc1ccccc1C(=O)OCC(=O)Nc1cccc(S(=O)(=O)NC2=NCCCCC2)c1` gave VACV Venus inh -6% and VACV mCherry inh -1%.
CCC1CN(C(=O)NCc2ccc(F)cc2)c2cc(Cl)ccc2O1 (centres undefined) was read as VACV Venus inh -7%&-8% and VACV mCherry inh -14%&2%.
For COc1ccc(S(=O)(=O)N2CCCCC2)cc1NC(=O)c1ccc([N+](=O)[O-])o1 the results were VACV Venus inh -19% and VACV mCherry inh inactive.
COc1ccc(-c2csc(Cc3nnc(N4CCOCC4)n3-c3ccccc3)n2)cc1 was read as VACV Venus inh -15% and VACV mCherry inh -28%.
For CC(C)(C)OC(=O)NC(CO)c1cn([C@@H](Cc2cc3ccccc3[nH]2)C(=O)N2CCN(C(=O)OC(C)(C)C)CC2)nn1 (some centres undefined) the results were VACV Venus inh -13% and VACV mCherry inh -15%.
Cc1cc(C)c(NC(=O)CNC(=O)COC(=O)CN2C(=O)NC3(CCCC3)C2=O)c(C)c1 was read as VACV Venus inh -19% and VACV mCherry inh -12%.
C=CCSc1nccc(-c2cc(Cl)sc2Cl)n1 was read as VACV Venus inh 0% and VACV mCherry inh inactive.
For Cc1cccc(C)c1NC(=S)NCCSc1ccc(Cl)cc1 the results were VACV Venus inh -3% and VACV mCherry inh -5%.
Screening Cc1ccc(N2CCN(S(=O)(=O)c3ccc(-n4cnnn4)cc3)CC2)c(C)c1 returned VACV Venus inh -18%&-4% and VACV mCherry inh -25%&-3%.
Screening Cc1ccc(C)c(CSc2nnc3[nH]c(=O)cc(C)n23)c1 returned VACV Venus inh -6% and VACV mCherry inh -14%.
For COc1ccc(C(=O)C=Cc2cccs2)c(O)c1 the results were VACV Venus inh 5% and VACV mCherry inh -3%.
CC1=CCC(C(=O)O)C(C(=O)Nc2cccnc2)C1 (centres undefined) was read as VACV Venus inh -9% and VACV mCherry inh -6%.
`COc1ccc(N(C)C(=O)c2nc(-c3cccc(F)c3)n3c2CCCCC3)c(OC)c1` gave VACV Venus inh -12% and VACV mCherry inh -14%.
COC(=O)Cn1nc(C)c2c(C)n(-c3ccccc3)nc2c1=O was read as VACV Venus inh -7% and VACV mCherry inh -5%.
Screening COc1ccc2c(c1)[C@]1(C[C@H](O)CO1)C(=O)N2C returned VACV Venus inh -4% and VACV mCherry inh -5%.
`CC(C)c1cn(CC[C@@H]2CC[C@H](NS(=O)(=O)c3ccc(F)cc3)[C@@H](CO)O2)nn1` gave VACV Venus inh -14% and VACV mCherry inh -2%.
`O=C(CCSCCC(=O)NN=Cc1ccccc1)NN=Cc1ccccc1` gave VACV Venus inh -1% and VACV mCherry inh -1%.
For COc1cc(OC)c(NC(=O)Cn2cnc3nc4c(cc3c2=O)CCCC4)cc1Cl the results were VACV Venus inh -18% and VACV mCherry inh -11%.
For C=CCN(c1cccc(C(F)(F)F)c1)S(=O)(=O)c1cccc(C(=O)OCC(=O)NC(N)=O)c1 the results were VACV Venus inh -12% and VACV mCherry inh -15%.
`CCN(CC)c1ccc(/C=N/NC(=O)c2ccccn2)cc1` gave VACV Venus inh -25% and VACV mCherry inh -17%.
Screening COc1cc(-n2c(=O)c3ccccc3n(CC(=O)c3ccc(F)cc3)c2=O)cc(OC)c1OC returned VACV Venus inh 3% and VACV mCherry inh -9%.
CCCCNC(=O)Nc1ccc(C(O)(C(=O)OC)C(F)(F)F)cc1 (centres undefined) was read as VACV Venus inh -3% and VACV mCherry inh -12%.

Compounds shown so far that contain an aryl thioether with sulfur outside any ring:
C=CCSc1nccc(-c2cc(Cl)sc2Cl)n1 was read as VACV Venus inh 0% and VACV mCherry inh inactive.
For Cc1cccc(C)c1NC(=S)NCCSc1ccc(Cl)cc1 the results were VACV Venus inh -3% and VACV mCherry inh -5%.
Screening Cc1ccc(C)c(CSc2nnc3[nH]c(=O)cc(C)n23)c1 returned VACV Venus inh -6% and VACV mCherry inh -14%.

Next results follow:
`COc1ccc2cc(CCNC(=O)c3ccc4c(c3)OCO4)c(=O)[nH]c2c1` gave VACV Venus inh -23% and VACV mCherry inh inactive.
Screening NC(Cc1ccc(F)cc1)c1csc(Nc2nncc3ccccc23)n1 (centres undefined) returned VACV Venus inh -28% and VACV mCherry inh -1%.
`COCCn1c(=O)[nH]c2cc(C(=O)N3CCN(c4ccc(Cl)cc4)CC3)ccc2c1=O` gave VACV Venus inh -2%&-26% and VACV mCherry inh inconclusive.
Screening CN(CCc1ccccc1)C(=O)c1cccc(NC(=O)Cc2cccc(NC(=O)C3CCCN(C(=O)c4ccccc4)C3)c2)c1 (centres undefined) returned VACV Venus inh -23% and VACV mCherry inh inconclusive.
`Cc1ccc(C)c2c1cc(C)c1nnc(SCC(=O)Nc3cccc(C(=O)O)c3)n12` gave VACV Venus inh 13% and VACV mCherry inh inactive.
Screening CC(NC(=O)c1ccc(OC2CCN(Cc3ccccn3)CC2)cc1)c1nccs1 (centres undefined) returned VACV Venus inh -15% and VACV mCherry inh inactive.
`O=C(COC(=O)CN1C(=O)NC2(CCCC2)C1=O)NCc1ccc(Cl)cc1Cl` gave VACV Venus inh -22% and VACV mCherry inh -20%.
Cc1ccc(C(=O)OCC(=O)N2CCC(C)CC2)cc1S(=O)(=O)N1CCCCC1 was read as VACV Venus inh -11% and VACV mCherry inh -14%.
`Cc1ccc(CCNS(=O)(=O)c2ccc3c(c2)CCN3C(=O)CCC(=O)O)cc1` gave VACV Venus inh 7% and VACV mCherry inh 2%.
CCc1ccccc1NC(=O)COc1cccc(-n2cnnn2)c1 was read as VACV Venus inh 3% and VACV mCherry inh -10%.
For N#CC1=C(N)NC(SCC(=O)Nc2ccc(Br)cc2)=C(C#N)C12CCCCC2 the results were VACV Venus inh inconclusive and VACV mCherry inh inconclusive.
`CCSC1=NCCN1C(=O)Cc1ccc(-c2ccccc2)cc1` gave VACV Venus inh -11% and VACV mCherry inh -10%.
`Cc1cc(NC(c2nnc(-c3ccccc3)o2)c2ccccc2F)ccc1Br` (centres undefined) gave VACV Venus inh -1% and VACV mCherry inh -8%.
`Cc1cccc(CSc2ncc(Cl)c(C(=O)Nc3nnc(C)s3)n2)c1` gave VACV Venus inh -6% and VACV mCherry inh 0%.
COC(=O)[C@@]12C[C@@H](CC(=O)NCc3cccs3)C(=O)N(Cc3ccccc3)C1=CCC(C)(C)C2 was read as VACV Venus inh -21% and VACV mCherry inh -3%.
`CCCCCNC(=O)C(c1ccncc1)n1c(=O)c(-c2cc3ccccc3[nH]2)nc2ccccc21` (centres undefined) gave VACV Venus inh -29% and VACV mCherry inh inconclusive.
For Cc1ccc2c(=O)cc(C(F)F)oc2c1 the results were VACV Venus inh -18%.
For CC(=O)N1CCN(S(=O)(=O)c2cccc(C(=O)Nc3nccs3)c2)CC1 the results were VACV Venus inh -9% and VACV mCherry inh inactive.
O=C(O)CCn1cc(C=C2C(=O)NC(=O)NC2=O)c(-c2ccc(Br)cc2)n1 was read as VACV Venus inh 0% and VACV mCherry inh -6%.
Screening C[C@H](CO)N1C[C@H](C)[C@@H](CN(C)Cc2ccc3c(c2)OCCO3)OCc2cnnn2CCCC1=O returned VACV Venus inh -4% and VACV mCherry inh -13%.
Screening Cc1c(Cl)cccc1NC(=O)CCC(=O)NNC(=O)c1ccccc1Cl returned VACV Venus inh -13% and VACV mCherry inh 0%.
For Cc1ccnc(NS(=O)(=O)c2ccc(N=Cc3c(O)n(C)c(=O)n(C)c3=O)cc2)n1 the results were VACV Venus inh 2% and VACV mCherry inh -2%.
O=C(NN=Cc1ccccc1)c1ccccc1 was read as VACV Venus inh 6% and VACV mCherry inh -14%.
Screening CCOC(=O)c1ccccc1NC(=O)N(C)CCc1c(C)nn(CC)c1C returned VACV Venus inh -7% and VACV mCherry inh -9%.
For CCCC(C(=O)NCC1CCCO1)N(Cc1ccco1)C(=O)CNS(=O)(=O)c1ccccc1 (centres undefined) the results were VACV Venus inh -24%.
`CN1C(=O)C(c2cn(C)c3ccccc23)(c2cn(C)c3ccccc23)c2cc(Br)ccc21` gave VACV Venus inh -5% and VACV mCherry inh inactive.
COc1ccc(Cl)cc1C(=O)NCC(c1ccco1)N(C)C (centres undefined) was read as VACV Venus inh -13% and VACV mCherry inh inactive.
For CCOC(=O)c1cc(CC)sc1/N=C/C1C(=O)CC(C)(C)CC1=O the results were VACV Venus inh -8% and VACV mCherry inh -11%.
`CCOC(=O)c1ccc(NC(=O)CCn2nnc3ccccc32)cc1` gave VACV Venus inh -7% and VACV mCherry inh -4%.
O=S(=O)(NN=Cc1cccc(Cl)c1)c1ccccc1 was read as VACV Venus inh -6% and VACV mCherry inh inactive.

6 compounds picked at random from those above, as already listed:
For Cc1ccnc(NS(=O)(=O)c2ccc(N=Cc3c(O)n(C)c(=O)n(C)c3=O)cc2)n1 the results were VACV Venus inh 2% and VACV mCherry inh -2%.
Screening C[C@H](CO)N1C[C@H](C)[C@@H](CN(C)Cc2ccc3c(c2)OCCO3)OCc2cnnn2CCCC1=O returned VACV Venus inh -4% and VACV mCherry inh -13%.
`CN1C(=O)C(c2cn(C)c3ccccc23)(c2cn(C)c3ccccc23)c2cc(Br)ccc21` gave VACV Venus inh -5% and VACV mCherry inh inactive.
For CC(=O)N1CCN(S(=O)(=O)c2cccc(C(=O)Nc3nccs3)c2)CC1 the results were VACV Venus inh -9% and VACV mCherry inh inactive.
COc1ccc(Cl)cc1C(=O)NCC(c1ccco1)N(C)C (centres undefined) was read as VACV Venus inh -13% and VACV mCherry inh inactive.
O=C(O)CCn1cc(C=C2C(=O)NC(=O)NC2=O)c(-c2ccc(Br)cc2)n1 was read as VACV Venus inh 0% and VACV mCherry inh -6%.

Further entries follow:
CC(=O)Nc1ccc(NC2=CC(=O)CC(C)(C)C2)cc1 was read as VACV Venus inh -2%.
`COc1cc(CNc2nnnn2C)ccc1OCc1c(F)cccc1Cl` gave VACV Venus inh -11% and VACV mCherry inh -2%.
For Cc1csc(SCC(=O)Nc2ccc(C)c(S(=O)(=O)N(C)C)c2)n1 the results were VACV Venus inh -11% and VACV mCherry inh -4%.
Screening COc1cc(/C=N/NC(=O)CCc2ccccc2)ccc1O returned VACV Venus inh -13% and VACV mCherry inh -11%.
Screening COc1ccc(-n2c(=O)c(CCC(=O)N3CCN(c4cccc(OC)c4)CC3)nc3ccccc32)cc1 returned VACV Venus inh -14% and VACV mCherry inh -3%.
For COCCCn1c(=S)[nH]c(C)c(C)c1=O the results were VACV Venus inh -20%[7.34 µM] and VACV mCherry inh -11%[7.34 µM].
`O=C1CCCC/C1=C/NCc1ccc(F)cc1` gave VACV Venus inh -12% and VACV mCherry inh inactive.
CCc1ccccc1NC(=O)C1CCN(C2=NS(=O)(=O)C(c3ccc(C)c(C)c3)=C2C)CC1 was read as VACV Venus inh -15% and VACV mCherry inh -15%.
O=C(c1ccco1)N1CCN(S(=O)(=O)c2cccc3nsnc23)CC1 was read as VACV Venus inh -9% and VACV mCherry inh -6%.
`Oc1c(Cl)cc(Cl)cc1/C=N/c1nc(-c2ccc(Cl)cc2)cs1` gave VACV Venus inh -18% and VACV mCherry inh -14%.
`CC(=O)OC1(C)CC(C)C(=O)C(C(O)CC2CC(=O)NC(=O)C2)C1` (centres undefined) gave VACV Venus inh 0.1µM* and VACV mCherry inh inconclusive.
For CCN(CC(=O)NC(C)(C)C)Cc1cc(=O)n2c(-c3ccccc3)csc2n1 the results were VACV Venus inh -2% and VACV mCherry inh inactive.
CCOC(=O)C1(C)CCCCCN1C(=O)c1ccc(C(F)(F)F)nc1C (centres undefined) was read as VACV Venus inh -5% and VACV mCherry inh inactive.
For Cc1cc2c(cc1C)-n1nnnc1C(N1CCN(c3ccccn3)CC1)C(c1ccc3c(c1)OCO3)=N2 (centres undefined) the results were VACV Venus inh 1% and VACV mCherry inh -19%.
Screening Cc1[nH]c2ccccc2c1N=Nc1ccccc1C(=O)O returned VACV Venus inh 4% and VACV mCherry inh -7%.
COc1ccc(/C=N/n2cncn2)cc1Cn1nc(C)c([N+](=O)[O-])c1C was read as VACV Venus inh -17% and VACV mCherry inh -27%.
For Cc1oc(-c2ccccc2Cl)nc1CN1CCCN(C(=O)c2ccco2)CC1 the results were VACV Venus inh -4% and VACV mCherry inh -27%.

Screening data as filed in PubChem.
